Bioassay records as filed in PubChem BioAssay.
MenB inh = blocks the Mycobacterium tuberculosis MenB enzyme; P9WNP5; MenB enzyme assay, absorbance read-out; some hits fall short of the stated cut; inhibition, %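 (about 12 µg/mL by stock and volumes)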; 100,000 compounds, 0.43% hits; AID 540299;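 active = mean of two replicates above 30%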;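 also: 0% = no compound and 100% = wells with inactive enzyme; the first replicate is given; strong numbers were not always called active; inactives centre near -10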
Mtb MbtI inh = inhibitors of Mycobacterium tuberculosis siderophore enzyme MbtI; inhibition, %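 (about 17 µg/mL by stock and volumes)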; P9WFX0; purified MbtI enzyme, fluorescence intensity read-out; 100,000 compounds, 0.89% hits;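 active = above 50% in both replicates, above 80% if mildly self-fluorescent; inactive = the rest, strongly fluorescent compounds included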;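 also: 0% = mean of negative and 100% = mean of positive controls; one replicate is shown; some compounds called inactive have numbers as strong as hits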
Target sequence (P9WFX0 whole entry, looked up): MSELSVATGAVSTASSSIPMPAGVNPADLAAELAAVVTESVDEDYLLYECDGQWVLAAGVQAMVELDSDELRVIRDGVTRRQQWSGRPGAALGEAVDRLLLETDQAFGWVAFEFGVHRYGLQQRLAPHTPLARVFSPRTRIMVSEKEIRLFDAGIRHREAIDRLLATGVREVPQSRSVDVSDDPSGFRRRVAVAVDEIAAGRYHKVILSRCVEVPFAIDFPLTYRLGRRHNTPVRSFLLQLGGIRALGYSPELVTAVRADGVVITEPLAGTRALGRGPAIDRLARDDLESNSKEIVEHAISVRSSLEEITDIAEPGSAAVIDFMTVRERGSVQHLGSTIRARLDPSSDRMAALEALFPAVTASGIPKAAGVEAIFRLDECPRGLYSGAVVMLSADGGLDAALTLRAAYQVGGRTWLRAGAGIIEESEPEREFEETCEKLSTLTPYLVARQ
Polio RdRp inh = poliovirus RNA polymerase inhibition. P03300. poliovirus polymerase elongation, fluorescence polarization; hits give low values. % elongation, % (compound at 16.7 µg/mL). 150,000 compounds, 0.66% hits. AID 588519; in the data active = % elongation below about 90%; also: some results filed as inactive read as strong as hits
Target sequence (P03300 1749-2209 limits assumed): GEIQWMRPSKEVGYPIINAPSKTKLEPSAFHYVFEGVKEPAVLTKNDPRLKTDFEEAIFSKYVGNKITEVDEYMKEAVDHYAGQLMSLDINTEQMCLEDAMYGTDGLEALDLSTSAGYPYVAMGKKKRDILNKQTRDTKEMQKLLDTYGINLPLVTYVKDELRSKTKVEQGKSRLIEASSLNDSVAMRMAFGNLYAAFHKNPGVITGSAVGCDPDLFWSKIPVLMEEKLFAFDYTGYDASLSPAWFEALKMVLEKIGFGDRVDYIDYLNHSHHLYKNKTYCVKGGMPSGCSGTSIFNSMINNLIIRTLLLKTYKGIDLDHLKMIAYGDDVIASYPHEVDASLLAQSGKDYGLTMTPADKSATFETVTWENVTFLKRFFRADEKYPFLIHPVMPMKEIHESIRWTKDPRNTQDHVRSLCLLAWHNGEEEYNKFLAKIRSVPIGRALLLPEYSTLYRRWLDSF
Polio RdRp inh intensity = recorded beside Polio RdRp inh, whose call it bears; % elongation; measured here: total intensity read-out; formula for this scale not given here;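 total fluorescence in place of polarization; lower means less elongation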
Starred values were filed as active, the others as inactive; nt = no result given; & = joins results of further samples.

SMILES | MenB inh | Mtb MbtI inh | Polio RdRp inh | Polio RdRp inh intensity
CC(C)CNC(=O)c1cc(-c2ccc(Cl)cc2)on1 | -15 | -2 | 105 | 107
CC(C)C(Nc1ccc(C(F)(F)F)cc1Cl)C(=O)O (configuration not stated) | nt | -7 | 101 | 103
CN1CCN(c2cc(C(=O)c3ccccc3O)cn3c(=O)c4ccccc4nc23)CC1 | -62 | -1 | 105 | 103
NC(=O)COC(=O)c1ccccc1Br | 5 | 8 | 97 | 101
NC(=O)C1CCN(c2ccc(S(=O)(=O)N3CCCCC3)cn2)CC1 | 3 | -2 | 107 | 106
COC(=O)C1C(=O)NC(SC)=C(C#N)C1c1ccccc1F (configuration not stated) | -17 | -2 | 103 | 102
Cc1cccc(-c2nnc(SCC(=O)OC(C)C)n2C)c1 | 1 | -2 | 104 | 103
COc1ccc(-c2c(C)nn3c(NCC(OC)OC)cc(C)nc23)cc1OC | -29 | -1 | 102 | 104
CC1=C(C(=O)N(C)C)C(c2ccc(-c3ccccc3)cc2)NC(=O)N1 (configuration not stated) | 2 | 7 | 108 | 103
CCC(CC)NC(=O)Cc1ccc(F)cc1 | -16 | -7 | 103 | 104
O=C(c1ccc(CS(=O)(=O)Cc2ccc(Cl)cc2)o1)N1CCCC1 | 12 | 1 | 102 | 105
COc1ccc(/C=C/C(=O)Nc2ccc3nc4n(c(=O)c3c2)CCCC4)cc1 | -6 | 14 | 102 | 112
CN1CCCN(C(=O)COc2ccc(C#N)cc2)CC1 | nt | -6 | 102 | 104
FC(F)(F)c1cc(-c2ccc3ccccc3c2)nn1C(=S)N1CCCCCC1 | -9 | -4 | 103 | 96
CCOC(=O)c1sc(NN)nc1C | -31 | -59 | 103 | 107
O=C(O)CSC(c1ccccc1)c1ccccc1 | 20 | 3 | 99 | 100
O=C(c1cccs1)N1CCN(c2ncccn2)CC1 | -10 | -10 | 101 | 101
O=C(/C=C/c1cccc(Cl)c1)Nc1ccc(N2CCOCC2)cc1 | nt | -4 | 100 | 96
Cc1cc2c3c([nH]c2cc1S(=O)(=O)NCCCN1CCOCC1)CC(C)(C)CC3=O | 12 | 5 | 100 | 103
CCCNS(=O)(=O)c1ccc(SC)cc1 | 13 | -1 | 103 | 100
CCCN(CC1CC1)Cn1c(=S)sc2ccccc21 | -16 | 66* | 110 | 109
Cc1oc2c(CN(C)C)c(O)ccc2c(=O)c1-c1cscn1 | 1 | 110 | 101 | 102
CC(C)c1cc(C(C)C)c(S(=O)(=O)N2CC3C4C=CC(C4)C3C2)c(C(C)C)c1 (configuration not stated) | -9 | -2 | 104 | 108
CCOC(=O)c1ccc(CNS(=O)(=O)c2c(C)ccc3nsnc23)o1 | 12 | 5 | 100 | 100
CO/N=C1\CC(C)(C)Cc2c(-c3ccn(C(=O)c4cccs4)n3)sc(SC)c21 | -11 | 8 | 101 | 95

Compounds shown so far that contain a carbonyl joined to an NH by a bond outside any ring (6):
SMILES | MenB inh | Mtb MbtI inh | Polio RdRp inh | Polio RdRp inh intensity
CC(C)CNC(=O)c1cc(-c2ccc(Cl)cc2)on1 | -15 | -2 | 105 | 107
NC(=O)COC(=O)c1ccccc1Br | 5 | 8 | 97 | 101
NC(=O)C1CCN(c2ccc(S(=O)(=O)N3CCCCC3)cn2)CC1 | 3 | -2 | 107 | 106
CCC(CC)NC(=O)Cc1ccc(F)cc1 | -16 | -7 | 103 | 104
COc1ccc(/C=C/C(=O)Nc2ccc3nc4n(c(=O)c3c2)CCCC4)cc1 | -6 | 14 | 102 | 112
O=C(/C=C/c1cccc(Cl)c1)Nc1ccc(N2CCOCC2)cc1 | nt | -4 | 100 | 96

Five compounds from above with just Mtb MbtI inh.
SMILES,Mtb MbtI inh
FC(F)(F)c1cc(-c2ccc3ccccc3c2)nn1C(=S)N1CCCCCC1,-4
CCOC(=O)c1sc(NN)nc1C,-59
O=C(O)CSC(c1ccccc1)c1ccccc1,3
O=C(c1cccs1)N1CCN(c2ncccn2)CC1,-10
O=C(/C=C/c1cccc(Cl)c1)Nc1ccc(N2CCOCC2)cc1,-4

New compounds follow
SMILES | MenB inh | Mtb MbtI inh | Polio RdRp inh | Polio RdRp inh intensity
Cc1ccc(C=Nc2cccc(C#N)c2)s1 | -52 | 4 | 101 | 101
c1cc2c(cc1C13CC4CC(CC(C4)C1)C3)n1nnnc1c1nnnn21 | -37 | 43 | 106 | 109
CCC(C)Sc1n[nH]c(=S)s1 (configuration not stated) | 6 | 99* | 101 | 103
O=C(/C=C/c1cccs1)OCC1CCCO1 (configuration not stated) | 0 | 15 | 102 | 105
COc1cc2c(c(OC)c1)C(c1ccccc1OC)CC(=O)N2 (configuration not stated) | -16 | -11 | 101 | 106
O=c1oc2ccccc2cc1-c1nn(-c2ccccc2)cc1C=NCc1ccccc1 | -4 | 19 | 103 | 107
COc1ccc(/C=C2\COc3ccccc3C2=O)c(OC)c1 | -71 | 5 | 103 | 105
O=C(Nc1cccnc1)C1=NN(C2CCS(=O)(=O)C2)C(=O)CC1 (configuration not stated) | 1 | -64 | 106 | 115
CCOC(=O)c1sc2nc[nH]c(=O)c2c1C | -24 | 107 | 102 | 106
O=C(NCc1ccco1)C1Cc2cc(Cl)ccc2O1 (configuration not stated) | 3 | -1 | 112 | 113
COc1cc2c(cc1OC)CN(S(=O)(=O)c1ccc3c(c1)CCC(C)(C)O3)CC2 | 9 | -5 | 95 | 101
OCCSc1nc2ccccc2n1CCOc1ccccc1 | -25 | 8 | 103 | 102
Clc1ccc(N/N=C2/CN3CCC2CC3)c(Cl)c1 | -13 | 8 | 105 | 102
CC(Sc1nnc(-c2cccs2)n1C1CC1)C(=O)c1ccc(F)c(F)c1 (configuration not stated) | -5 | 8 | 98 | 105
Fc1cccc(CSc2nc3ccccc3c3nc4ccccc4n23)c1 | 17 | 10 | 100 | 95
CCN1CCN(CC(O)COCCC23CC4CC(CC(C4)C2)C3)CC1 (configuration not stated) | nt | -1 | 100 | 96
CC1Cc2ccccc2N1C(=O)/C=C/c1cccc(Br)c1 (configuration not stated) | nt | -7 | 102 | 104
CCc1ccc(NC(=O)N2CC(CC)Sc3ccccc32)cc1 (configuration not stated) | -30 | -7 | 103 | 108
Cc1ccc(/C=C2\CC/C(=C\c3ccc(C)o3)C2=O)o1 | -74 | 99* | 84 | 185
O=C(O)C1C2C=CC(C3CC23)C1C(=O)N1CCc2ccccc21 (configuration not stated) | -12 | -23 | 98 | 94
O=C(NC1CCCCC1)N1CCN(Cc2ccccc2)CC1 | -5 | -4 | 103 | 100
CCN1C(=O)NC(c2cccnc2)C(C(=O)OC)=C1C (configuration not stated) | 5 | 8 | 99 | 102
O=C(COc1ccc(Cl)cc1)NCCc1ccccc1 | -5 | -5 | 102 | 105
O=C(Nc1nnc(C(F)(F)F)s1)c1ccccc1 | -34 | 92* | 100 | 99
COc1ccc(C2=NS(=O)(=O)N(C)C(C(=O)N(C)Cc3ccccc3)=C2)cc1 | -30 | -1 | 102 | 96
(list continues)
SMILES | MenB inh | Mtb MbtI inh | Polio RdRp inh | Polio RdRp inh intensity
CCN(CC(=O)Nc1ccccc1OC)CC(=O)NC1CCCc2ccccc21 (configuration not stated) | -18 | 4 | 101 | 98
Cn1c2ccccc2c2cc(C(=O)O)sc21 | -11 | 15 | 101 | 113
CC1CC(=O)C2=C(C1)Nc1ccccc1N(C(=O)COc1ccccc1)C2c1ccco1 (configuration not stated) | -41 | 5 | 102 | 98
CCN(CCC#N)c1ccc(CNCC2CN(Cc3ccccc3)CCO2)c(C)c1 (configuration not stated) | -2 | -5 | 97 | 102
CC1=C(CCN2CCN(c3ccccc3)CC2)C(C)(C)CCC1 | -23 | 4 | 100 | 100
C=CCn1c(=N)c(C(N)=O)cc2c(=O)n3ccccc3nc21 | -13 | 89 | 102 | 103
Cn1c(=O)c2cc(C(=O)O)sc2c2ccccc21 | -4 | 116 | 102 | 103
CCOc1ccccc1NC(=O)Nc1cc(C(=O)O)ccc1C | 1 | -35 | 101 | 103
CC(C)(C)c1nc2scc(-c3ccccc3)c2c(=O)o1 | -15 | -11 | 101 | 103
CC1CCN(Cn2cnn(CN3CCC(C)CC3)c2=S)CC1 | -36 | 40 | 102 | 98
O=C1CCc2cc(S(=O)(=O)N3CCc4ccccc43)cc3c2N1CC3 | -7 | 3 | 98 | 107
COCCn1c(C)cc(/C=C(\C#N)c2ccc(C)cc2)c1C | -7 | -1 | 100 | 103
O=C(O)c1ccc(C=Nc2ccc(C(=O)O)cc2)cc1 | -17 | -8 | 100 | 101
Cc1cccc(NC(=O)C(C)N2CCN(c3ccccc3O)CC2)c1 (configuration not stated) | 2 | -29 | 105 | 108
Cc1nn(-c2ccccc2)c2nc(-c3ccc4c(c3)OCO4)cc(-c3nnc4n3CCCCC4)c12 | -17 | -52 | 104 | 109
COc1ccc(OC)c(CNc2ccc3c(c2)nc(C)n3C)c1 | -14 | nt | 112 | 111
CNc1ccccc1C(C)(C)c1cc(-c2ccccc2)no1 | nt | -3 | 100 | 97
O=C1CN(C(=O)Cn2nnc(-c3cccc(C(F)(F)F)c3)n2)c2ccccc2N1 | -5 | -9 | 102 | 109
CN(C)S(=O)(=O)c1ccc2oc3n[nH]c(=S)n3c2c1 | -5 | 34 | 98 | 96
Cc1ccccc1NC(=S)Nc1ccc(C#N)cc1 | -15 | 6 | 100 | 107
CCCCCCCCCCCCCCC(F)C(=O)O (configuration not stated) | 2 | -27 | 101&100 | 105&104
CCCC(=O)C1=C(O)C(C(=O)OC)C(C)(C)CC1=N (configuration not stated) | -16 | -5 | 104 | 101
CC(NS(=O)(=O)c1ccccc1)C(=O)O (configuration not stated) | -16 | -12 | 96 | 80
CN(C)c1ccc(/C=N/N=C2/C(=N/O)CCc3nonc32)cc1 | -44 | 3 | 98 | 101
CC1CCCCC1NC(=O)CN1CCC(NC(=O)Nc2ccccc2)CC1 (configuration not stated) | 0 | 0 | 101 | 101
(more compounds)
SMILES | MenB inh | Mtb MbtI inh | Polio RdRp inh | Polio RdRp inh intensity
COc1ccc(C(NC(=O)C2CC(=O)N(Cc3ccco3)C2)c2ccccc2)cc1 (configuration not stated) | -11 | 4 | 103 | 99
CC1(C)CC(=O)C(=CN2CCOCC2)C(=O)C1 | -8 | 9 | 100 | 99
CC1CN(S(=O)(=O)c2cccc(C(=O)Nc3ccccc3)c2)CC(C)O1 (configuration not stated) | 1 | -13 | 102 | 103
CN(C)CC(O)Cn1c2ccccc2c2ccccc21 (configuration not stated) | nt | -26 | 102 | 104
CN(Cc1ccccc1)C(=O)CNC(=O)Cn1ccc2ccccc2c1=O | 7 | 5 | 99 | 101
O=C(Cc1cccs1)NCc1ccc(Cl)cc1 | -4 | nt | 108 | 119
CC1(C)CC(=O)C=C(Nc2ccc3c(c2)OCO3)C1 | -11 | 13 | 103 | 109
CC(C)c1ccc(-c2nnn(CC(=O)c3ccc(NS(C)(=O)=O)cc3)n2)cc1 | 3 | -32 | 97 | 99
Clc1ccc2c(c1)NNc1nncn1-2 | -10 | -3 | 101 | 105
Nc1[nH]c(N=NC(=O)c2cccc(S(=O)(=O)N3CCOCC3)c2)c2ccccc12 | -54 | 7 | 101 | 103
CCC(C)NC(=S)Nc1ncccc1C(=O)OC (configuration not stated) | 7 | -7 | 103 | 105
C=C1c2ccccc2N=C(SCC(=O)Nc2cc(C)ccc2OC)N1C | -38 | 22 | 110 | 109
O=C(Nc1ccc(N2C(=O)C=CC2=O)cc1Cl)c1ccco1 | 11 | 96* | 99 | 102
CCN(CC)S(=O)(=O)c1cc(C(=O)Nc2cccc3c2C(=O)NC3=O)ccc1Cl | -20 | -10 | 91 | 108
Fc1ccccc1-c1csc(-c2cccnc2)n1 | nt | -15 | 100 | 106
N#Cc1cc(C(=O)c2ccccc2O)coc1=O | -13 | -6 | 106 | 97
CCOC(=O)c1ccc2c(c1)CC/C(=C\c1ccc(Cl)cc1Cl)C2=O | -15 | -7 | 105 | 117
O=c1c2ccccc2c(C=NCCCN2CCOCC2)c(O)n1Cc1ccccc1 | -27 | -9 | 102 | 106
Cc1nc(Cc2nnc(SCC(=O)NC(=O)c3cccn3C)o2)cs1 | -10 | -4 | 104 | 111
COc1cccc(C(=O)NCCSc2ccc(C)cc2)c1 | -19 | -19 | 99 | 98
C=C(C)CN(CC)c1nc(N)c2c(N)nc3c(c2c1C#N)CC(=O)N3CC1CCCO1 (configuration not stated) | -9 | -272 | 113 | 115
C/C(=N\NC(N)=S)c1ccc(Cl)cc1 | -54 | 61* | nt | nt
ON(Cn1nnc2ccccc21)Cn1nnc2ccccc21 | 5 | 16 | 102 | 104
C(=C\c1ccccc1)/CN1CCN(c2ncnc3sccc23)CC1 | -8 | 1 | 104 | 96
O=C(CSc1nnnn1-c1ccccc1)NCC1CCCCC1 | -2 | -2 | 105 | 102
COc1cc(C2c3c(oc4ccccc4c3=O)C(=O)N2c2nnc(C)s2)ccc1O (configuration not stated) | 12 | 1 | 101 | 102
Clc1ccc(Nc2ccc(-c3ccccc3)nn2)cc1 | -16 | 0 | 106 | 101
CC(C)(C)c1ccc(-c2nnc(SCCC#N)n2C2CCCC2)cc1 | -19 | 6 | 112 | 111
CCCN1CCN(CCCNC(=O)C2CCN(c3ncnc4c3sc3cccc(F)c34)CC2)CC1 | -33 | 0 | 102 | 102
